Beta apoptosis – beta cell apoptosis inhibition; INS-1E cytokine-induced death, ATP luminescence, 48 h; percent of positive-control rescue, neutral wells zero; protection from apoptosis, % (no concentration beside the values); 0.8% of 300,000 active; AID 435005;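 active means all replicates at 75% or more, or half of them and the mean; inconclusive means half reach 75% but not the mean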;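 further: 0% = cytokine-treated negative control wells and 100% = positive control rescue; higher means more ATP so stronger rescue from cytokine killing; wells of about 40 µL received 100 nL stock; the first replicate is given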
Beta2AR agonist – agonists of human beta-2 adrenergic receptor inducing internalization; P07550; Am2.2-beta2AR cells, FAP receptor internalization, flow cytometry; reference of the scale not given here; response, % (test concentration not listed); 0.43% of 340,000 active;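 active means response above a set limit, near 3 SD of response in nonfluorescent compounds, cut at about 42% in these data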;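 further: stock transfer was 100 nL into about 11 µL; a reference agonist was the positive control; negative values mostly stem from fluorescent compounds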
T cruzi inh – T. cruzi replication inhibition; AID 1885; inhibition, % (test concentration not listed); T. cruzi beta-gal in NIH3T3, luminescence, 90 h; 1.4% of 300,000 active;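 active means mean inhibition across valid replicates above about 55%, limit read from the data; inconclusive means mean below that limit but half or more replicates reach it; inactive means mean below it, under half of replicates reach it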;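 further: signal also drops with host cell toxicity which is not excluded here; 0% = plate median of DMSO wells and 100% = zero luminescence signal; higher percent means less beta-gal luminescence so fewer parasites; stock transfer was 50 nL into about 50 µL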
A1 inh – inhibitors of the anti-apoptotic protein A1, read as caspase activation; 0.066% of 330,000 active; MEF A1-2A-BIM cells, Caspase-Glo 3/7 luminescence, 3 h; percent of clofoctol response, vehicle zero; caspase activation, % (concentration not given with the values); AID 2462;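 active means over half of replicate activation scores above 10%, or exactly half above 10 with the replicate mean above 10; inconclusive means replicate mean below 10 yet half the replicates above 10; inactive means over half of replicates below 10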;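 further: wells of about 30 µL received 50 nL stock; many hits fall short of the cut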
UCH37 inh – inhibitors of human deubiquitinating enzyme UCH37; Q9Y5K5; purified proteasome/UCH37, Ub-AMC cleavage fluorescence; inhibition, % (test concentration not listed); 0.33% of 330,000 active; AID 588478;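 active means mean of two replicates above 20%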;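 further: 0% = compound-free wells with enzyme and 100% = wells lacking proteasome; stock transfer was 100 nL into about 20 µL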
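Material: human UCH37 enzyme supplied as purified proteasome complex / Amount: 0.15 nM proteasome as dispensed / Buffer or medium: pH 7.4 Tris-HCl (50 mM) with ovalbumin, ATP-MgCl2, DTT / Times: preincubation 30 min, reaction 25 min, room temperature / Technique: AMC fluorescence from Ub-AMC cleavage, excitation 355 nm, emission 460 nm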
RanGTP-Imp inh – inhibitors of RanGTP-importin-beta interaction, primary screen, biochemical, FRET, CFP-Ran, YFP-importin-beta, homogeneous; cell-free CFP-Ran/YFP-importin-beta FRET ratio; inhibition, % (concentration not given with the values); 1.1% of 300,000 active;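 active means most replicates above 15%; inconclusive means exactly half above 15%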;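 further: 0% = DMSO wells and 100% = Ran loaded with GDP instead of GTP; wells of about 40 µL received 100 nL stock; the first replicate is given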
LANA-H2B inh – blocks KSHV LANA binding to histone H2A/H2B. Q9QR71. cell-free LANA-H2A/H2B peptide, fluorescence polarization. inhibition, % (no concentration beside the values). 0.6% of 320,000 active; in the data active means inhibition mostly above about 10%, no sharp cut-off; inactive means mostly below about 6.7%;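 further: stock transfer was 7.5 nL into about 10 µL; 0% = median of vehicle wells and 100% = median of positive control wells; one replicate is shown; the record names a cut of 25% in any replicate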
Target sequence (Q9QR71 whole entry, looked up): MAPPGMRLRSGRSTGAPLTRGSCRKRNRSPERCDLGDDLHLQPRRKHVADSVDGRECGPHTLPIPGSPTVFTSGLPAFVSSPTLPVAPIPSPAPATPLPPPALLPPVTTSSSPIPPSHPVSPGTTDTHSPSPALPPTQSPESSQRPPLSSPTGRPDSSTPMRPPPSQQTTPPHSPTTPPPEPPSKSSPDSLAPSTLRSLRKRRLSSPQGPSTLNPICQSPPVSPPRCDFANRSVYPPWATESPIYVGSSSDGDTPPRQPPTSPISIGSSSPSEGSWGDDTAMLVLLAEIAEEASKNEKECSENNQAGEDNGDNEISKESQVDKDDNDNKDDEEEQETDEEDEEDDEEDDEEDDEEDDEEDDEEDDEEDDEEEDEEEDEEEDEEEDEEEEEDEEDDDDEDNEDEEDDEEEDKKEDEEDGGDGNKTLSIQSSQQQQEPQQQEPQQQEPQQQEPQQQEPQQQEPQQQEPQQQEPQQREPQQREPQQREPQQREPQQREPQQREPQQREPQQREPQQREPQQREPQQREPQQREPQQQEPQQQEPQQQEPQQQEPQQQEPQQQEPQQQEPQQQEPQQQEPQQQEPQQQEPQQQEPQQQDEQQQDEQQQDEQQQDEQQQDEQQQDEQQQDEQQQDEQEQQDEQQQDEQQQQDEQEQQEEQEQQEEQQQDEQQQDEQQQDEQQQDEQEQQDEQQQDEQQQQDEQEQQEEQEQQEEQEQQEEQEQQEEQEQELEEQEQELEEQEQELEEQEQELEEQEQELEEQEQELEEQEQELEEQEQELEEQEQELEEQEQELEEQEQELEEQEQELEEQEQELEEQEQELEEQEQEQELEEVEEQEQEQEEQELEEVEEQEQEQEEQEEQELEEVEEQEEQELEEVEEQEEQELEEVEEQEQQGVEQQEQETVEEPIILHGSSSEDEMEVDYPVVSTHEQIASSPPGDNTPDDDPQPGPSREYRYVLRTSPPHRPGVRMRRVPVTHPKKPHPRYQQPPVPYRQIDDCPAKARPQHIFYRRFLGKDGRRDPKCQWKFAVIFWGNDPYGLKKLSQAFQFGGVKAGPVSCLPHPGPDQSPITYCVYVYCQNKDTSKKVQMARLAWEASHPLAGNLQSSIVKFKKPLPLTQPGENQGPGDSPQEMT
Calb FLC – affects C. albicans growth with fluconazole. C. albicans CaCi-2 (fluconazole-resistant clinical isolate) + fluconazole, Alamar Blue growth, 48 h. growth inhibition, % (test concentration not listed). 0.57% of 300,000 active;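 active means most replicates above 75%; inconclusive means exactly half above 75%; inactive means most below 75%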;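 further: all wells also contain fluconazole at 8 µg/ml as a sub-toxic cotreatment; 0% = median of DMSO wells and 100% = median of geldanamycin control wells; wells of about 8 µL received 7.5 nL stock; the first replicate is given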
* hit, by the source's call; ? = inconclusive; / = not tested or not shown.

Molecule,Beta apoptosis,Beta2AR agonist,T cruzi inh,A1 inh,UCH37 inh,RanGTP-Imp inh,LANA-H2B inh,Calb FLC
Cc1c(NC(C)C)c(=O)n(-c2ccccc2)n1C,3,-2,/,-0.8,1.7,/,0.2,/
CC1CCN(CCNC(=O)c2ccc3c(=O)n(Cc4ccc(Cl)cc4)c(=S)[nH]c3c2)CC1,3,12,25,0.3,2.5,-3.1,-2.8,?
Cc1ccc(OCCCNC2CCCC2)cc1,-10,-3,25,1.5,0.3,1.4,-1.8,0
CC(C)(C)c1ccc(S(=O)(=O)NCC2CCCO2)cc1 (stereo unspecified),-1,1,0,1.1,2.5,-4.5,2.9,6
c1cncc(-c2nnc(SCc3nc4ccccc4[nH]3)o2)c1,-7,-5,-6,0.9,3.0,1.5,-1.8,-7
O=C(O)c1c[nH]c2ccc(S(=O)(=O)N3CCN(c4ccc(F)cc4)CC3)cc2c1=O,-9,-4,-20,0.8,-0.5,2.1,7.1,5
O=c1[nH]c2ccc(Br)cc2c(-c2ccccc2)c1N1CCOCC1,-4,-7,36,-0.2,-44,1.7,-0.9,16
Cc1ccc(N2C(=O)c3oc4ccccc4c(=O)c3C2c2cccc(O)c2)nc1 (stereo unspecified),7,-17,4,-1.1,3.7,5.9,-0.1,18
N#CCc1nc(-c2cc3ccccc3oc2=O)cs1,1,-7,19,-2.3,-92,177*,0.1,?
C/C(CC(=O)Nc1cccnc1)=N\NC(=O)C(=O)NC(C)C,-8,4,-9,-0.3,/,1.6,1.3,24
COCC(=O)N1CCC(Oc2ccc(C(=O)N3CCSCC3)cc2)CC1,-2,-3,-10,-0.5,3.5,1.6,3.8,-1
Cc1ccc(CNC(=O)CCNC(=O)Cn2ccc3ccccc3c2=O)cc1,2,-2,-4,-0.3,-0.6,-3.0,9.3,0
CCC12CC3CC(C1)CC(C(=O)NNC(N)=O)(C3)C2,-6,9,-5,-0.1,1.1,1.7,-4.2,-5
Cc1cccnc1N(C(=O)Nc1cccc(Cl)c1)C1=NCC(C)(C)S1,3,1,-6,1.3,2.2,0.2,-4.5,-10
CN(C)C(=S)SCC(=O)Nc1cccc(C(F)(F)F)c1,0,-8,4,0.8,3.1,1.0,-0.1,3
CC1CCc2nc3ccc(S(=O)(=O)N4CCC(C(=O)NC(C)c5ccccc5)CC4)cc3c(C(=O)O)c2C1 (stereo unspecified),-4,-8,7,0.6,-1.3,7.7,-6.4,-12
CN(/N=C/c1ccccc1O)C(=S)c1ccccc1,-4,2,-9,-1.7,/,2.6,-1.9,-4
O=C(Cn1c(=O)oc2ccccc21)N1CCCC1,-6,-6,-2,-0.5,1.4,2.1,-3.2,-10
O=c1cc(N2CCC3(CC2)OCCO3)[nH]c(=O)n1-c1ccc(Br)cc1,/,1,-9,/,2.5,17*,/,-1
Cc1c(Cl)c(C(F)(F)F)nn1CC(=O)NCc1ccccc1,-1,3,10,2.1,3.9,-1.4,-4.6,-1
O=C(CSc1ccccn1)Nc1ccc(N2CCOCC2)cc1,-2,5,-4,-0.6,2.5,-3.6,-3.9,13
COC(=O)c1ccccc1NC(=O)Cn1cc(Br)cn1,-1,5,-8,0.1,-2.0,-1.8,0.6,-5
Oc1ccc(C=NCCc2ccccc2)cc1,-2,-7,-4,0.3,3.8,1.9,-4.2,-8
COc1ccc(N2C(=O)CC(NNc3ncc(Cl)cc3Cl)C2=O)cc1 (stereo unspecified),-3,0,-9,-0.1,-1.1,0.9,-1.2,8
COc1ccc(C2C3=C(CCCC3=O)N(CC(=O)O)C3=C2C(=O)CCC3)cc1,/,7,0,0.4,-366,61*,-2.8,-4
O=C(Cn1c(NCCO)nc2ccccc21)NCCc1ccc(F)cc1,-2,7,-11,0.2,-0.3,0.3,2.4,3
Cc1cc(C)n(Cc2ccc(C(=O)N/N=C/c3ccc(-c4ccc([N+](=O)[O-])cc4)o3)o2)n1,-2,8,0,0.6,/,-12,-0.8,-5
Cc1ccc(S(=O)(=O)NC(=O)NCc2ccccn2)cc1,-1,6,1,0.6,0.9,3.2,-28,4
C=C1CCC[C@]2(C)C[C@H]3OC(=O)C(CNCC(C)C)[C@H]3CC12 (stereo partly specified),-24,5,-53,0.4,21*,-2.7,-2.1,-8
Cc1ccc(C(=O)NCC(c2ccco2)N2CCc3ccccc3C2)cc1 (stereo unspecified),1,4,15,-0.2,-1.7,0.3,-0.2,9
Cc1cc(C)nc(/N=C(\N)Nc2cccc(OCc3ccccc3)c2)n1,-28,-10,-14,0.3,/,3.9,1.8,-26
CC(C)N(C(=S)Nc1cccc(S(=O)(=O)N(C)C)c1)c1ccccc1,-7,-2,-3,0.1,5.5,1.3,4.1,0
Cc1nn(-c2ccccc2)c2nc3c(cc12)C(=O)CCC3,/,-6,1,0.1,-12,-0.6,-3.2,-5
O=C(N/N=C/c1cn[nH]c1-c1ccc(Cl)cc1)c1ccc([N+](=O)[O-])cc1,-2,7,-10,1.0,/,4.5,0.2,3
Cc1ccccc1NC(=O)COC(=O)c1ccc(S(=O)(=O)N2CCCC2)cc1,-3,8,/,0.4,4.8,/,0.6,/
FC(F)(F)c1cccnc1Oc1ccc(C2=NCCS2)cc1,/,-2,/,0.4,1.5,13,-1.4,-9
COc1ccccc1NC(=O)c1ccc(C)c(S(=O)(=O)N2CCCCC2)c1,-5,0,6,-1.0,2.0,0.4,-1.3,3
O=C(CSc1nnc(CNC(=O)c2cccc(C(F)(F)F)c2)o1)NCC1CCCO1 (stereo unspecified),-3,-5,-10,2.6,1.0,?,1.0,7
CCN(CC)CCn1c2ccccc2c2nc(C)sc21,5,-5,0,0.1,5.5,6.8,-0.1,0
Cc1cc(=O)[nH]c(SCC(=O)Nc2cccc(C(F)(F)F)c2)n1,-3,-1,-5,-0.3,1.3,0.8,2.9,-3
COc1ccc(C2C(C#N)=C(N)N(c3ncn[nH]3)C3=C2C(=O)CCC3)cc1 (stereo unspecified),0,1,17,-0.2,1.0,2.6,-0.9,-15
C=CCOc1ccc(/C=N/NC(=O)CN2CCOCC2)cc1OCC,-4,-6,2,-0.8,/,?,1.8,-16
C/C(=N/NC(=O)CNC(=O)Cc1ccc(Cl)cc1)c1ccco1,-1,-4,-3,0.5,/,-1.1,-2.1,-5
O=C1CCCC2=C1C(c1ccccc1O)C1=C(CCCC1=O)O2,-8,4,2,1.0,-2.2,4.0,1.0,?
COC(=O)C1=C(C)N(C2CCCC2)C(=O)C1(NC(C)=O)C(F)(F)F (stereo unspecified),0,-5,-12,1.0,-0.5,3.5,-0.5,-9
Cc1ccc(S(=O)(=O)N2CCN(Cc3nc4sc(C)c(C)c4c(=O)[nH]3)CC2)cc1,/,0,14,0.6,-1.7,2.4,0.6,-1
CCn1ncc([C@@H]2C[C@H]3CN(Cc4cccc(Cl)c4)C(=O)[C@]34CCCN24)c1C,6,-9,16,-0.3,5.5,-0.5,1.2,0
Cc1ccc(NC(=O)C2CC(=O)Nc3nc4ccccc4n32)c(C)c1 (stereo unspecified),-3,4,1,0.1,1.6,-1.1,-2.0,2
CC(C(=O)O)n1ncc2ccccc2c1=O (stereo unspecified),3,0,-6,0.1,0.3,0.2,1.1,1
COc1ccc(OCc2nnnn2-c2ccccc2)cc1,-1,-5,-7,0.7,3.1,5.2,1.0,-3
COc1ccc(-c2cc(C(=O)NC3CCCC3)c3ccccc3n2)cc1,7,9,16,1.7,-126,-0.7,5.3,-20
CCOC(=O)c1c(C)oc2c1c(CN1CCN(C(=O)OCC)CC1)c(O)c1ccccc12,-6,8,-18,20*,-0.7,3.1,/,9
Cc1ccccc1NC(=O)C(=O)NCCc1c[nH]c2ccccc12,-3,-2,-23,-1.0,2.6,0.6,2.3,-3
Fc1ccc(Oc2nc(-c3ccccn3)nc3ccccc23)cc1,77*,-21,-18,-0.9,/,3.8,2.4,-5
CC(C)CCNC(=O)CCCn1c(=O)[nH]c2ccc(Br)cc2c1=O,2,-11,-4,0.2,4.6,-3.9,-3.5,41
CC(C)n1c(-c2ccc(N(C)C)cc2)nc2ccccc21,10,9,/,0.4,-148,/,0.6,/
Cc1ccc(C)c(NC(=S)NC2CC3CCCC(C2)N3CC(C)C)c1 (stereo unspecified),-1,4,-25,0.4,1.6,5.3,1.3,-21
Fc1ccc(-c2n[nH]c(=S)n2Cc2ccccc2)cc1,/,-5,-6,-0.2,-0.1,-3.5,-0.7,-1
CCS(=O)(=O)N1CCC(C(=O)NCCCN2CCC(Cc3ccccc3)CC2)CC1,-5,-2,10,0.3,6.0,-3.5,2.7,-3
CN(C)S(=O)(=O)c1cccc(C(=O)NCCOC(=O)c2cc(F)c(F)cc2Cl)c1,/,11,9,-2.0,3.9,1.8,-0.9,25

The list goes on.
Molecule,Beta apoptosis,Beta2AR agonist,T cruzi inh,A1 inh,UCH37 inh,RanGTP-Imp inh,LANA-H2B inh,Calb FLC
O=C(CCC(=O)c1cccs1)NNC(=O)c1cccc(Cl)c1,3,-3,-5,0.0,-1.2,2.6,/,4
c1ccc(CSc2nnc(-c3ccco3)o2)cc1,-4,-9,-9,-0.4,/,-0.6,-4.7,0
CCOc1cc2c(cc1C(C)(C)C)NC(=O)CS2,-1,-3,25,-0.3,2.5,6.8,-4.0,-4
O=C(O/N=C\c1ccc(N2CCOCC2)c([N+](=O)[O-])c1)c1ccccc1Cl,-4,1,-5,-0.1,/,-5.2,-4.1,-26
Cc1ccc(S(=O)(=O)N2CCOCC2)s1,-3,0,-3,0.5,1.5,1.1,5.4,-8
CCN1CCN(C(=O)c2ccc(Cl)c(S(=O)(=O)N(C)c3ccccc3)c2)CC1,-1,-2,/,0.2,1.0,/,-0.1,/
Cc1ccc(NC(=O)C(OC(=O)c2cc(C)oc2C)c2ccccc2)cc1 (stereo unspecified),3,-3,7,-0.7,-0.1,1.3,1.9,-10
COc1ccc(CN2C(=O)c3ccccc3C2C(=O)NCCc2ccccc2)c(OC)c1 (stereo unspecified),3,11,4,0.5,0.6,2.5,2.9,2
Cc1ccccc1NC(=O)N1CCC(C(=O)c2ccc(F)cc2)CC1,3,-1,-3,1.1,/,-1.7,-3.8,-6
O=C(Cn1c(NCCO)nc2ccccc21)c1ccco1,0,-12,-11,-0.3,3.2,-2.0,-0.1,-1
CCS(=O)(=O)C1=NN2C(=N)/C(=C\c3ccc(OC(=O)c4ccco4)cc3)C(=O)N=C2S1,0,6,-8,-0.5,13,-3.4,1.4,1
CCN(CC)S(=O)(=O)c1cccc(NC(=O)COC(=O)c2cc(C)oc2C)c1,-8,-6,-5,0.4,1.1,-8.1,6.1,-3
CCCNC(=O)NS(=O)(=O)c1cnccc1Sc1ccc(Cl)cc1,-8,-7,5,0.7,0.4,-0.3,-0.2,-8
Cc1ccc(-n2c(SCC(N)=O)nc3c(c2=O)C2(CCCC2)Cc2ccccc2-3)cc1,-1,-21,7,0.3,0.7,4.3,/,43

Screens from PubChem BioAssay.
